# Mtb H37Rv – M. tuberculosis H37Rv growth inhibitors, H37Rv strain (AID 1626); 220,000 compounds, 0.95% hits; one-dose inhibition, % at 10 µM; IC50 in µM for titrated hits; M. tuberculosis H37Rv growth inhibition; higher % means a stronger effect;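 active means confirmed in a dose series; inconclusive means inhibition above 80% but not taken into the dose series; inactive means below 80% or under 30% at every dose of the series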;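 further: bacteria incubated seven days before Alamar blue readout; 0% = bacteria only wells and 100% = bacteria with antibiotic wells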
# Mtb betalactam – beta-lactam sensitization of Mtb H37Rv; M. tuberculosis H37Rv growth with meropenem, percent inhibition; hits of this screen are not shown here; inhibition, % at 25 µM; 330,000 compounds, 0.27% hits;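 active means about 74% or more and at least 40 points above the plate without the antibiotic, then above 30% in a dose series; inconclusive means first-round hits that could not be retested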;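 further: growth measured after seven days incubation then overnight dye step; 0% = bacteria only wells and 100% = bacteria with antibiotic; twin plates without the antibiotic show which effects depend on it; some results filed as inactive read as strong as hits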
# Arbovirus inh – arbovirus infection inhibition; arbovirus infection cell-based antiviral screen; inhibition, % at 10 µM; 200,000 compounds, 0.37% hits; AID 1251;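 active means inhibition from about 30%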;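 further: bluetongue infection of BSR cells; cell survival read as ATP light after 72 h; 0% = infected wells without compound and 100% = uninfected wells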
# RecA intein inh – Mtb RecA intein splicing inhibition | cell-free RecA intein splicing, fluorescence | inhibition, %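 (about 9 µM by stock and volumes)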 | 290,000 compounds, 0.75% hits | AID 2221; in the data active means inhibition above about 30%; inconclusive means no clear call, values can overlap the other calls;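 further: 0% = vehicle wells and 100% = reference inhibitor control wells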
# Target sequence (P9WHJ3 whole entry, looked up): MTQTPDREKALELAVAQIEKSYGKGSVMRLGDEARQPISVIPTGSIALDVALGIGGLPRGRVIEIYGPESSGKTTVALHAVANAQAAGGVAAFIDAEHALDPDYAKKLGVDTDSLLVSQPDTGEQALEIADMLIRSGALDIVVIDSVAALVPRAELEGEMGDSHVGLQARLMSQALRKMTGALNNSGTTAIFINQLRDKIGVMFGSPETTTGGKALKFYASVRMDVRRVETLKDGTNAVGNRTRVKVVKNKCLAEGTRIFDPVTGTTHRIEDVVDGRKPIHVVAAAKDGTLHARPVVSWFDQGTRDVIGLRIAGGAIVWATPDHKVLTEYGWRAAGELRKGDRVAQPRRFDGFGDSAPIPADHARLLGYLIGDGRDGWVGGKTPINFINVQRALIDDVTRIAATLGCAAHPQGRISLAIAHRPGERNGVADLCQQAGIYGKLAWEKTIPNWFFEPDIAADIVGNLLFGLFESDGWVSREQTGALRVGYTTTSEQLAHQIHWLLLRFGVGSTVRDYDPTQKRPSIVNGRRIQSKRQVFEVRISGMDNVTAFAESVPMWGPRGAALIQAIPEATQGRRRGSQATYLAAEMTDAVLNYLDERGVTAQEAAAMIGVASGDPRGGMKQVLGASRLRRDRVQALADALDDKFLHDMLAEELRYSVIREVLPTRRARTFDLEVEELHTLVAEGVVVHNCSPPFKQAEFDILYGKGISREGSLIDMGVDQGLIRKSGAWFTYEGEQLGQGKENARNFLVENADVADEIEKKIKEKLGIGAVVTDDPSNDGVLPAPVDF
# YopH inh – inhibitors of Yersinia enterocolitica YopH tyrosine phosphatase; fluorescence Ex485/Em525; inhibition, %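 (about 10 µM by stock and volumes)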; 140,000 compounds, 0.16% hits;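 active means inhibition of 50% or more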;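 further: controls were vehicle for no effect and minimum signal wells for full effect; inactives centre near -20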
# Arbovirus inh repeat – second read-out of Arbovirus inh, no call of its own (marks repeat the call); inhibition, %; measured here: 10K subset replicate screen; many hits read low in the repeat;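 first of two repeat runs on a subset; 0% = infected and 100% = uninfected wells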
# Active calls of the source: *; ? = inconclusive; nt = no result given; & = joins results of further samples. These rows are one share of the data; rates above refer to the full screens.
SMILES,Mtb H37Rv,Mtb betalactam,Arbovirus inh,RecA intein inh,YopH inh,others
CN1CCN(CC#CCC2(O)c3ccccc3-c3ccccc32)CC1,5%,2,12,0.9,nt,
Cc1ccc(Cl)cc1N1CCN(C(=O)C2CCN(S(=O)(=O)c3cnc[nH]3)CC2)CC1,0%,-7,3,nt,-5,
CCN(CC)c1ccc(NC(=O)C2=CCN(S(=O)(=O)c3ccc(F)cc3)CC2)c(C)c1,nt,2,-21,-2.9,-27,
Nc1nonc1-c1nc2ccccc2n1Cc1ccccc1,-4%,2,-23,nt,8,
O=Cc1cn(-c2ccccc2)nc1-c1ccncc1,9%,2,-16,-1.1,nt,
Cc1ccc(NC(=O)C2CCN(S(=O)(=O)c3ccc4[nH]c(=O)oc4c3)CC2)cc1F,nt,3,nt,-1.8,nt,
COc1ccc(-c2ccc(C)cc2)cc1[C@H]1[C@@H]2C=CCC[C@@]2(C)C(=O)N1Cc1ccccc1,3%,-9,nt,6.5,nt,
Cc1ccc(S(=O)(=O)N2CCN(C(=O)c3ccccc3Cc3ccccc3)CC2)c(C)c1,nt,2,nt,30*,nt,
NC12CCc3c(no[n+]3[O-])C1(O)CC(c1ccccc1)=[N+]2[O-] (stereo not given),10%,-3,2,4.5,-30,
CC(C)(C)NC(=O)C(c1ccco1)N(C(=O)Cn1nnc(-c2ccc(F)cc2)n1)c1ccccc1 (stereo not given),nt,2,nt,nt,-5,
Cc1ccc(Cn2nnc3c(=O)[nH]c(C4CCN(S(=O)(=O)c5cc(C)ccc5C)CC4)nc32)cc1,34%,99,-37,14,-45,
COc1ccc2[nH]c(C(=O)N/N=C/c3ccc(O)cc3O)cc2c1,nt,3,nt,-11,nt,
Cc1c(C(=O)NC2CCCc3ccccc32)oc2ccccc12 (stereo not given),nt,13,6,4.0,-3,
Nc1nc(-c2ccc(-n3nncc3-c3ccco3)cc2)cs1,7%,4,nt,1.6,nt,
CC(C)C(=O)Nc1ccc(Cl)cc1-c1nc2ccccc2[nH]c1=O,nt,7,nt,-1.2,nt,
C=CCc1ccc(OCC(O)CN2CCC(Cc3ccccc3)CC2)c(OC)c1 (stereo not given),13%,1,-38,3.6,3,
COc1ccccc1C(=O)NCc1ccccc1,3%,10,1,13,-12,
Cc1cc(CSc2ccccc2)ccc1NC(=O)c1cccc([N+](=O)[O-])c1,4%,1,-2,-0.4,-33,
Cc1ccccc1OCc1nnc(SCC(=O)Nc2c(C)n(C)n(-c3ccccc3)c2=O)n1-c1ccccc1,-5%,-5,4,7.6,-18,
Cc1ccccc1C(=O)NC(=S)N(C)C1CCCCC1,nt,62,nt,-0.9,nt,
Cc1ccc(C(=O)CCC(=O)N2CCC(C(N)=O)CC2)cc1,-15%,1,8,-1.1,nt,
Cc1cc(NC(=O)CCC(=O)N(Cc2ccc(F)cc2)C(C(=O)NC2CCCC2)c2ccco2)no1 (stereo not given),nt,-1,nt,3.1,nt,
CCN(CC)c1nc2ccccc2nc1-n1nc(C)cc1C,12%,-8,-8,-1.1,-12,
NC(=S)c1cnn2c(-c3cccc(C(F)(F)F)c3)ccnc12,nt,8,nt,18,nt,
CCc1ccc(NC(=O)C(=O)NCCN2CCN(S(C)(=O)=O)CC2)cc1,-1%,-2,3,1.4,nt,
CCn1c(SCC(=O)N/N=C/c2cccs2)nc2ccccc21,1%,7,-13,2.2,-10,
Cc1ccc(S(=O)(=O)N2CCC(C(=O)N3CCCC(C(F)(F)F)C3)CC2)cc1C (stereo not given),nt,1,nt,0.4,nt,
COc1ccccc1-n1c(SCC(=O)Nc2cccc(C)c2)nc2c(c1=O)SCC2,10%,-6,2,4.6,-33,
CC(ON1CC1(C(F)(F)F)C(F)(F)F)(C(N)=O)C(N)=O (stereo not given),-1%,-1,6,-0.5,-12,
CC1=CC(=C(C#N)C#N)C=C(C)N1CCN1CCN(C(=O)Nc2cccc(Cl)c2)CC1,-3%,-5,6,-1.2,-9,
O=C1C(Cl)=C(NCC2CCCO2)C(=O)N1Cc1ccccc1 (stereo not given),-1%,-18,-1,-0.9,-43,
COC(=O)[C@H]1C[C@@H]1[C@H](NC(=O)OCc1ccccc1)c1ccccc1,-3%,1,-6,-1.1,-7,
COc1ccc(NC(=O)c2cccc(Cn3cc(Br)cn3)c2)cn1,-8%,-2,9,4.2,-71,
O=C(Nc1ccon1)c1ccccc1Cl,-1%,-3,3,-2.6,-19,
CC(=O)/C=C\c1ccccc1OC(=O)c1cc2ccccc2oc1=O,nt,0,nt,1.2,nt,
COC(=O)C1=Nc2ccccc2/C1=C\c1c(O)n(-c2ccc(OC)cc2)c(=O)[nH]c1=O,-3%,-5,6,-0.7,-20,

# Continued (3 carried over from the part before).
SMILES,Mtb H37Rv,Mtb betalactam,Arbovirus inh,RecA intein inh,YopH inh,others
O=C(Nc1ccon1)c1ccccc1Cl,-1%,-3,3,-2.6,-19,
CC(=O)/C=C\c1ccccc1OC(=O)c1cc2ccccc2oc1=O,nt,0,nt,1.2,nt,
COC(=O)C1=Nc2ccccc2/C1=C\c1c(O)n(-c2ccc(OC)cc2)c(=O)[nH]c1=O,-3%,-5,6,-0.7,-20,
O=C(Nc1cccnc1)c1cc2cc(Br)ccc2oc1=O,>100µM*,nt,-2,2.4,nt,
O=C(NCc1ccc(Cl)cc1)C(=O)NCC1OCCN1C(=O)c1ccc(Cl)cc1 (stereo not given),4%,33,-4,0.4,nt,
CCN(CC(=O)Nc1ccc(OC(F)F)cc1)C1CCCCC1,-2%,-5,-4,0.3,nt,
Cc1ccc2nc(-c3ccccc3)c(CN3CCN(c4ccccc4F)CC3)n2c1,67%,16,-18,17,nt,
COc1ccc([N+](=O)[O-])cc1NC(=O)CSc1nc(C)cc(C)n1,-4%,94,-10,0.7,-26,
CCCCNC(=O)C(c1ccc(OCC(=O)OC)c(C(=O)OC)c1)N(CCc1c[nH]c2ccccc12)C(=O)CCCCCN1C(=O)NC(c2ccc(-c3ccccc3)cc2)C(C(=O)OCc2ccccc2)=C1C (stereo not given),0%,nt,nt,3.1,nt,
Fc1c(F)c(-n2nnc3ccccc32)c(F)c(F)c1Cl,nt,5,nt,-1.4,nt,
CN(C)c1ccc(/C=C(\NC(=O)c2ccccc2)C(=O)NCCN2CCOCC2)cc1,nt,-6,nt,-4.4,nt,
COc1ccc2ccc(=O)oc2c1CC(O)C(C)(C)O (stereo not given),-7%,-6,nt,-3.4,nt,
CCn1c(SCC(=O)NCC2CCCO2)nnc1-c1ccc(Cl)cc1 (stereo not given),0%,3,0,-1.6,nt,
CC(Cc1ccccc1)C(=O)NCCO (stereo not given),-13%,-2,2,-0.8,-26,
Cc1ccc(S(=O)(=O)N2CCN(C(=O)C3Cc4ccccc4CN3C(=O)c3ccco3)CC2)cc1 (stereo not given),6%,-10,8,-1.6,-23,

# Pulled by compound from the list above, 3 records:
SMILES,Mtb H37Rv,Mtb betalactam,Arbovirus inh,RecA intein inh,YopH inh,others
O=C(Nc1cccnc1)c1cc2cc(Br)ccc2oc1=O,>100µM*,nt,-2,2.4,nt,
Cc1ccc2nc(-c3ccccc3)c(CN3CCN(c4ccccc4F)CC3)n2c1,67%,16,-18,17,nt,
COc1ccc([N+](=O)[O-])cc1NC(=O)CSc1nc(C)cc(C)n1,-4%,94,-10,0.7,-26,

# (further entries)
SMILES,Mtb H37Rv,Mtb betalactam,Arbovirus inh,RecA intein inh,YopH inh,others
N#Cc1ccc(S(=O)(=O)NCC(=O)OCC(=O)N2CCCC2=O)cc1,nt,-7,nt,-5.8,nt,
O=C(NCCC1=CCCCC1)c1ccc(F)c(S(=O)(=O)N2CCOCC2)c1,4%,-10,0,-2.3,-23,
CC(=O)c1ccc(OCC(=O)NCc2ccc(F)cc2)cc1,9%,-5,6,nt,nt,
CCN(CC)c1ncnc2sc(C(=O)N3CCN(c4ccccc4)CC3)c(C)c12,3%,1,2,1.6,-30,
Cc1cc(F)ccc1NC(=O)c1cc(S(=O)(=O)N2CCOCC2)cn1C,nt,2,nt,-0.4,nt,
COc1cc(/C=C/c2ccc3c(Br)cc(Br)c(O)c3n2)ccc1O,<0.2µM*,99,nt,20,nt,
CC12CCC(C(=O)N(CC(O)CN3CCCCC3)C1=O)C2(C)C (stereo not given),1%,2,6,2.2,-27,
Cc1cccc(NC(=O)CSc2ccc(-c3ccco3)nn2)c1,-5%,-5,-8,-2.3,-34,
Cn1cc(Br)c(-c2cccc(NC(=O)CCC(=O)O)c2)n1,-10%,-5,nt,-0.9,nt,
CC1CCCCC1NS(=O)(=O)CCNC(=O)c1ccccc1 (stereo not given),nt,-10,nt,0.2,nt,
CCn1nc(C)cc1C(=O)Sc1cccc(Cl)c1,-1%,2,nt,21,nt,
O=C(CCCn1c(=S)[nH]c2cc3c(cc2c1=O)OCO3)N1CCN(c2ccc(F)cc2)CC1,2%,31,14,-2.8,1,
CC(C)(C)NC(=O)CC(c1ccccc1)c1ccccc1O (stereo not given),-8%,0,3,1.5,-44,
NC(=O)c1sc(-c2ccsc2)cc1NS(=O)(=O)c1ccc(C(F)(F)F)cc1,-4%,17,nt,-4.4,nt,
COC(=O)[C@@H]1C[C@H]2CC[C@H](O)C[C@H]2N1Cc1ccc(Cl)cc1,-2%,-3,nt,1.9,nt,
CC(=O)N(C)c1nnc(-c2ccccn2)s1,-3%,1,8,0.5,-31,
CCN(CC)c1ccc(/C=N/N2CCN(Cc3ccc(C)cc3C)CC2)c(O)c1,?,93,9,3.8,-19,
C[N+](C)(C)C[C@H](O)CC(=O)[O-],nt,-5,nt,-0.7,nt,
CN(C)CCNc1nc2sc3c(c2c(=O)n1CCc1ccccc1)CCCCC3,8.6µM*,100,nt,4.6,nt,
Nc1ccc(C(=O)OCC(=O)NC2CCS(=O)(=O)C2)cc1[N+](=O)[O-] (stereo not given),-10%,-9,nt,2.5,nt,
COc1cc(CCC(=O)OCC(=O)Nc2ccc(F)cc2F)cc(OC)c1OC,nt,0,nt,-3.3,nt,
CCC(C)(C)NC(=O)CN(Cc1ccc2c(c1)OCO2)C(=O)CCC(=O)Nc1ccccn1,1%,-5,-1,-1.2,38,
COCC(CN1CCN(C2=NS(=O)(=O)c3ccccc32)CC1)OC(=O)c1ccc(OC)cc1 (stereo not given),nt,3,nt,-0.5,nt,
O=C1c2ccccc2C(Nc2ccc3c(c2)OCO3)N1Cc1ccc2c(c1)OCO2 (stereo not given),14%,1,-20,1.5,-19,Arbovirus inh repeat=-11
NC(=S)Nc1cccc2[nH]ccc12,8%,1,14,0.3,nt,
O=C(CC1(O)C(=O)Nc2ccccc21)c1ccc(-n2cnnn2)cc1 (stereo not given),-13%,2,9,0.7,nt,
C/C(=N\NC(=O)CCc1ccc(S(=O)(=O)N2CCOCC2)cc1)c1ccccc1Cl,-2%,2,6,2.9,nt,
CC(=O)c1ccc(N2CCN(C(=O)/C=C/c3ccc4ccccc4n3)CC2)cc1,1%,-2,2,4.9,nt,
COC(=O)c1[nH]c2ccc(Cl)cc2c1NC(=O)CCN1CCOCC1,nt,-2,2,0.3,-24,
O=C(O)C1CCN(C(=O)COc2ccc3c(c2)oc(=O)c2ccccc23)CC1,nt,-9,nt,1.7,nt,
Cc1oc(-c2cc(Cl)cc(Cl)c2)cc1C(=O)NCCc1ccccc1,5%,-5,-12,7.9,-32,
Cc1ccc(C(=O)N(CN2CCCC2=O)c2ccccc2)cc1,10%,3,14,-2.3,nt,
CCNC(=S)N/N=C(\C)c1cccc([N+](=O)[O-])c1,-2%,6,3,1.5,-23,
COc1ccc(/C=N/NC(=O)C(=O)N2CCCC2)cc1OC,3%,13,-7,-1.5,-40,
CCOC(=O)c1c(-c2ccccc2)csc1NC(=O)C1CCCO1 (stereo not given),-4%,13,0,0.0,-39,
CC(=O)c1c(C)[nH]c(C(=O)OCC(=O)Nc2cccc(S(=O)(=O)N3CCCC3)c2)c1C,3%,0,5,-6.0,-5,
CCOC(=O)c1c(NC(=O)CSc2nnnn2C)sc(CC)c1C,4%,-16,-6,4.2,0,
COC(=O)/C(C#N)=C/c1c(Oc2cccc(C)c2)nc2ccccn2c1=O,-2%,-4,nt,9.9,nt,
COCCCN1C(=O)c2ccc(C(=O)OCC(=O)NCc3ccccc3OC)cc2C1=O,nt,-9,nt,1.8,nt,
C[C@]12CCC(=O)C=C1CC[C@@H]1[C@@H]2[C@@H](O)C[C@@]2(C)[C@H]1CC[C@]2(O)C(=O)CO,0%,-5&-9,24,-0.1,-24,
CCOCCCNC(=O)c1ccc2c(c1)N=C(CC)c1cc(Br)ccc1S2,6%,-1,-6,-0.8,nt,
CCn1c(SCC(=O)N2c3ccccc3CCc3ccccc32)nnc1-c1ccc(OC)cc1,0%,-5,0,0.0,-18,
Cc1nn2c(C)c(C(=O)Nc3ccccc3)cnc2c1-c1ccccc1,3%,8,nt,7.4,nt,
